Assay outcomes from PubChem.
Six1-Eya2 blk: qHTS Assay for Inhibitors of the Six1/Eya2 Interaction | AlphaScreen GST-Six1/His-Eya2 binding, biochemical; hits give low values; control for the full effect not named in the record | activity change, % (test concentration not listed) | hit rate 0.56% among 360,000 | AID 651725, 2012; in the data active = activity change below about -65%; inconclusive = about -30% to -65%; inactive = above about -30%; also: % is scaled to controls: 0 for no effect and ±100 for the full control effect; compound concentration not given in the record
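Compounds are tested against tagged Six1 and Eya2 proteins bridged by glutathione donor and nickel acceptor beads; after a one-hour incubation at 37 °C without light, AlphaScreen emission is recorded.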
D2 PAM: Beta-Arrestin HTS for Positive Allosteric Modulators of the Human D2 Dopamine Receptor: Potentiators; hit rate 0.23% among 360,000; DiscoveRx D2 beta-arrestin cells, luminescence, 90 min; 100% = 57 uM dopamine signal; potentiation, % (no concentration beside the values); active = potentiation of 50% or more; inconclusive = 30% to 50%; inactive = 30% or less;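 also: compound concentration not given in the record; tested on top of an EC20 dose of dopamine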
Target sequence (P14416 whole entry, looked up): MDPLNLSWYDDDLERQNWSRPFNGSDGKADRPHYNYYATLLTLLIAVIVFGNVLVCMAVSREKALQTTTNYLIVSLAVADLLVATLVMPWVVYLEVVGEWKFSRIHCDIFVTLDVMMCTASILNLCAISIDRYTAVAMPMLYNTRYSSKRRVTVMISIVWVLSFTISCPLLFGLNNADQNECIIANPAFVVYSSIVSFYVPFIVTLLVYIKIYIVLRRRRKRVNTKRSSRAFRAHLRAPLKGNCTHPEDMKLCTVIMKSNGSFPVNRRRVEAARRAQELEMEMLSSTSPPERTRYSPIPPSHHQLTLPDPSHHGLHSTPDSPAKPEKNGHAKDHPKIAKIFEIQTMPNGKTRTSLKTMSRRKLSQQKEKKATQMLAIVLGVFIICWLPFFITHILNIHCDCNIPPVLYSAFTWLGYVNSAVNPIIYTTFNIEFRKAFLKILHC
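D2 cells co-treated with compound plus 50 nM dopamine (EC20) for 90 min at 37 deg C to detect potentiation. Beta-arrestin recruitment was read as enzyme-fragment luminescence after 1 h at ambient temperature. Full response was set by 57 uM dopamine.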
TRPML1 ag: qHTS for Agonists of the Human Mucolipin Transient Receptor Potential 1 (TRPML1). activation, % (test concentration not listed). Mucolipin-1 (Homo sapiens), Q9GZU1. AID 624414, 2012. hit rate 0.12% among 410,000. TRPML1-expressing cells, Ca2+ dye fluorescence, FDSS; host cell line not named in the record; reference of the full effect not given here; in the data active = activation above about 50%; inconclusive = about 30% to 50%; inactive = below about 30%; also: 0% is about no effect; the text of the record puts the active cut at 80%
Target sequence (Q9GZU1 whole entry, looked up): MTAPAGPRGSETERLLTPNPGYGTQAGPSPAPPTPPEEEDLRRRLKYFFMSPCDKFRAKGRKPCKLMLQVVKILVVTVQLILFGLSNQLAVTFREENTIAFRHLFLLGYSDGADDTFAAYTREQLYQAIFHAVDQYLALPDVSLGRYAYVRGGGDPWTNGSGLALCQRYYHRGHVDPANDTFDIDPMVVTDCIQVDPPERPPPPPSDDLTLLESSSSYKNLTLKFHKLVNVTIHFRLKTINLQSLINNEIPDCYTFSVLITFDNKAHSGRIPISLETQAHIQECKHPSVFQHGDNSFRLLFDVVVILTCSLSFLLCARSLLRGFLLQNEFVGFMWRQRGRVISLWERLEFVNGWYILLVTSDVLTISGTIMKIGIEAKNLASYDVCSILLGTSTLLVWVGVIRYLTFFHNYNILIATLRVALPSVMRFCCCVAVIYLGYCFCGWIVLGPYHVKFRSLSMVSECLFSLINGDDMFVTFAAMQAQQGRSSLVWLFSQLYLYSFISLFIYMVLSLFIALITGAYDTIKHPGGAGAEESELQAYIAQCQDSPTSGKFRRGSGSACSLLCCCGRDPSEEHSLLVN
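Agonist activity was taken from a 110 s kinetic Ca2+ dye read on the FDSS after pinning compounds onto TRPML1-DL cells. The cells were seeded at 1,500/well with Tet inducer, incubated about 16 h, then dye-loaded at room temperature.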
TRPML1 blocker: qHTS for Inhibitors of the Human Mucolipin Transient Receptor Potential 1 (TRPML1); activity change, negative = inhibition, % (test concentration not listed); hit rate 0.02% among 390,000; Mucolipin-1 (Homo sapiens), Q9GZU1; TRPML1-inducible cells, Ca2+ dye fluorescence, FDSS; hits give low values; inhibition of EC80 agonist-evoked calcium signal; AID 624415, 2012; in the data active means activity change below about -50%; inconclusive means about -30% to -50%; inactive means above about -30%;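 also: stimulus is agonist 54-4 at its EC80 concentration; % is scaled to controls: 0 for no effect and ±100 for the full control effect; compound concentration not given in the record; the text of the record puts the active cut at -80%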
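Tet-induced TRPML1-DL cells loaded with Ca8 no-wash calcium dye were read kinetically on FDSS. Compound addition was followed by EC80 agonist 54-4 (4 uM final); inhibition was read over 110 s.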
D2 agonist: Beta-Arrestin HTS for Positive Allosteric Modulators of the Human D2 Dopamine Receptor: Agonists; AID 624465, 2012; hit rate 0.084% among 360,000; D(2) dopamine receptor (Homo sapiens), P14416; activation, % (concentration not given with the values); DiscoveRx PathHunter D2 beta-arrestin, luminescence, 90 min; 100% = 57 uM dopamine signal; in the data active = activation above about 40%; inconclusive = about 15% to 40%; inactive = below about 15%; also: compound concentration not given in the record; the text of the record calls up to 30% inactive
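DiscoveRx PathHunter D2 beta-arrestin cells (2,100/well) attached overnight, then compound-stimulated 90 min at 37 C in HBSS/10 mM HEPES/0.1% Tween-20 buffer; beta-galactosidase complementation read by luminescence after 1 h at ambient temperature. Dopamine 57 uM final (EC100) as control.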
PINK1 modulator: A Quantitative High throughput Screen to Identify Chemical Modulators of PINK1 Expression; PINK1 immunofluorescence, high-content cytometry, 24 h; Potency, µM (highest dose often 76.6 µM), inactives show at the highest dose activation (PINK1 increase), actives largely listed as activators; hit rate 0.2% among 410,000; active = well fitted activation curve with a large enough effect; inconclusive = small, poorly fitted or top-dose-only effect; inactive = flat fitted curve, though single readings scatter; cell line not stated here;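 also: potency is read from the fitted curve at half-maximal effect; % of control where 0% means no effect; nearly all actives have a fitted effect of over 65% in size; a mitochondrial uncoupler was the plate control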
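PINK1 protein level read as immunofluorescence by microplate cytometer in a fixed, stained stable cell line after 24 h exposure to five compound concentrations, with CCCP as control.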
Numbers without * were called inactive; ? = inconclusive; . = not tested or not shown; & = joins results of further samples; [ ] = remark or other dose.

SMILES	Six1-Eya2 blk	D2 PAM	TRPML1 ag	TRPML1 blocker	D2 agonist	PINK1 modulator
O=C(CCCSc1nc2ccccc2s1)NCc1ccco1	-4	-7	1.1	11	-1.9	1.6%
Cc1cc2oc(=O)cc(CN3CCCCC3C)c2c(C)c1Cl (stereo unspecified)	-1	-3	0.4	19	-0.7	6.3%[38.3 µM]
CCN(CC(=O)Nc1c(F)cccc1F)C(=O)Cc1sc(C)nc1-c1ccc(F)cc1	4	11	0.4	39	-3.4	8.0%
NC(=O)C1CCN(C(=O)CSc2nc(O)cc(=O)[nH]2)CC1	19	-3	0.0	3	-4.4	-0.4%
COc1cc(OC)c(/C=C2\SC(=O)N(CC(=O)Nc3ccccc3F)C2=O)c(OC)c1	0	8	.	.	-1.1	2.8%
Cc1cc(NC(=O)COC(=O)c2ccccc2O)no1	7	-10	2.4	-9	-4.3	2.2%
COc1ccc(NC(=O)c2cc3c(-c4ccc(OC)c(OC)c4)nn(C)c3s2)cc1OC	?	12	0.1	8	0.4	-2.9%
COc1ccc(NC(=O)c2cc(C3CC3)nc3c2c(C)nn3-c2ccccc2)c(OC)c1	.	.	-0.4	-1	.	-0.2%
Cc1ccc(C)c(NC(=O)CSc2nc(=O)n(Cc3ccncc3)c3c2CCC3)c1	.	.	-0.6	7	.	-0.1%
CC(C)(C)c1ccc(C(=O)O/N=C(\N)c2ccccc2)cc1	13	19	-0.1	-6	40*	-1.5%

Grouped by structure, those above containing fluorine.
SMILES	Six1-Eya2 blk	D2 PAM	TRPML1 ag	TRPML1 blocker	D2 agonist	PINK1 modulator
CCN(CC(=O)Nc1c(F)cccc1F)C(=O)Cc1sc(C)nc1-c1ccc(F)cc1	4	11	0.4	39	-3.4	8.0%
COc1cc(OC)c(/C=C2\SC(=O)N(CC(=O)Nc3ccccc3F)C2=O)c(OC)c1	0	8	.	.	-1.1	2.8%

Taken from the listing, 3 compounds:
SMILES	Six1-Eya2 blk	D2 PAM	TRPML1 ag	TRPML1 blocker	D2 agonist	PINK1 modulator
COc1ccc(NC(=O)c2cc(C3CC3)nc3c2c(C)nn3-c2ccccc2)c(OC)c1	.	.	-0.4	-1	.	-0.2%
Cc1ccc(C)c(NC(=O)CSc2nc(=O)n(Cc3ccncc3)c3c2CCC3)c1	.	.	-0.6	7	.	-0.1%
CC(C)(C)c1ccc(C(=O)O/N=C(\N)c2ccccc2)cc1	13	19	-0.1	-6	40*	-1.5%

Further entries
SMILES	Six1-Eya2 blk	D2 PAM	TRPML1 ag	TRPML1 blocker	D2 agonist	PINK1 modulator
CCOC(=O)c1c(O)c(O)c(C(=O)OCC)n1-c1ccccc1	11	3	0.1	-2	0.2	1.1%
O=[N+]([O-])c1cc(F)c(N2CCCCC2)cc1N1CCOCC1	-14	-4	0.2	-3	0.2	3.8%[38.3 µM]
O=C(N/N=C/c1ccc(OC(F)F)cc1)c1ccc(CSc2nc3ccccc3[nH]2)cc1	-1	2	1.3	-4	5.3	1.4%
O=C(Nc1ccccc1)c1nc[nH]c1C(=O)NCCCNC(=O)c1[nH]cnc1C(=O)Nc1ccccc1	-9	-8	-0.9	8	-1.0	-0.4%
CC(=O)c1ccc(OCc2cc(C(=O)N3CCN4CCCC4C3)no2)cc1 (stereo unspecified)	-1	7	0.7	-6	-0.9	1.5%
Cc1ccccc1C(=O)Nc1ccc2c(c1)OCCO2	10	-8	.	.	2.5	2.8%
CCC(C)[C@H](NC(=O)NCCCOC(C)C)C(=O)OC (stereo partly specified)	4	-9	-0.1	-9	-0.1	0.4%
O=C(NCCc1ccc(F)cc1)C(=O)NCC(c1cccs1)S(=O)(=O)c1cccs1 (stereo unspecified)	.	.	0.9	6	.	-0.3%
CC(=O)NC1=NN(C(C)=O)C(C)(c2ccc(C)o2)S1 (stereo unspecified)	0	3	-0.2	11	-1.8	0.0%
CCC(=O)N1CCc2cc(S(=O)(=O)NCCC(=O)N3CCN(c4ccccn4)CC3)ccc21	10	3	0.5	9	1.0	0.0%
COc1ccc(-c2nc(CS(=O)CC(=O)NCc3ccccc3OC)c(C)o2)cc1 (stereo unspecified)	.	.	2.5	-21	.	-1.2%
Cc1ccc(CNC(=O)CS(=O)(=O)Cc2nc(-c3ccc(C)cc3)oc2C)cc1	-1	-10	3.5	6	2.1	3.0%
CCOc1ccc(C(=O)NCC(c2cccs2)S(=O)(=O)c2ccccc2)cc1 (stereo unspecified)	.	.	0.6	-3	.	-0.8%
Cc1ccc(OC(=O)N(C)C[C@H]2OCc3cn(nn3)CCCC(=O)N([C@H](C)CO)C[C@@H]2C)cc1	5	-8	0.6	-11	7.7	2.1%
O=S(=O)(Nc1ncccn1)c1ccc(NC(=S)Nc2ccccc2)cc1	27	-6	-0.4	-4	-1.8	-1.8%
COC(=O)/C(=C/c1c[nH]c2ccccc12)NC(C)=O	-4	-13	1.0	2	0.3	0.5%
COC(=O)c1[nH]c2cc(OC)ccc2c1NC(=O)c1c(F)cccc1F	-1	4	0.6	34	2.4	4.2%
O=C(Nc1ccccc1F)c1cc(S(=O)(=O)N2CCCCC2)cs1	-1	-12	0.2	6	-1.9	6.4%[38.3 µM]
C=CCn1c(COc2ccccc2)nnc1SC(C)C(=O)N/N=C/c1cc(Cl)ccc1O (stereo unspecified)	?	58*	1.2	-13	5.1	-0.6%
CCCNC(=O)Cn1c2ccccc2c2nc(=O)cc(C)n21	0	-6	0.1	1	-5.4	-1.2%
O=C(CN1C(=O)NC2(CCCCCC2)C1=O)NC1CC1	24	-5	-0.3	-1	-3.1	-0.6%
CCN1CCCC1CNC(=S)Nc1ccc(C(C)=O)cc1 (stereo unspecified)	6	8	-0.3	11	-4.1	2.7%
Cc1ccc(C(=O)NC(N(C)C)C(Cl)(Cl)Cl)cc1 (stereo unspecified)	4	-9	0.2	52	-2.1	-1.1%
O=C(O)c1ccc(S(=O)(=O)c2ccc([N+](=O)[O-])cc2[N+](=O)[O-])cc1	-13	-6	0.8	-13	?	-0.8%
CCS(=O)(=O)c1ccc2oc(SCC(=O)NCCc3ccc(F)cc3)nc2c1	0	-10	-0.2	4	-2.9	0.0%
O=[N+]([O-])c1ccc(/C=N/n2c(CO)nc3ccccc32)s1	1	?	-0.1	22	5.8	17%
O=c1c2sccc2[nH]c(=S)n1Cc1ccccc1	0	-6	0.4	16	3.8	1.2%
COc1ccc(C)cc1S(=O)(=O)N1CCN(S(=O)(=O)c2cc(C)ccc2OC)CC1	-5	2	0.9	50	-0.1	0.3%
O=C(COc1cccc(Cl)c1)Nc1ccccc1N1CCCCC1	0	20	-0.5	-20	0.5	?
Cc1nc2nc(C)c(CCC(=O)NCCCN3CCN(c4cccc(Cl)c4)CC3)c(C)n2n1	-6&1	-16&4	-0.8&-0.5	8&25	?	-0.3%&2.9%
O=S(=O)(c1ccccc1)c1nc(-c2ccccc2F)oc1NCc1cccnc1	-8	-9	0.0	19	-1.8	6.1%
Cc1c(C(=O)N2CCCCC2)sc(NC(=O)C23CC4CC(CC(C4)C2)C3)c1C#N	1	20	1.1	9	1.1	14%
CC(=O)Oc1ccc(NC(=O)CSc2ccccc2)cc1	3	-4	1.3	-29	1.4	-2.2%[38.3 µM]
Cc1cccc(C)c1NC(=O)COC(=O)C1CC1	3	15	-0.2	2	-1.1	0.5%
Cc1cccc(NC(=O)COc2ccc(/C=C\c3[nH]c(=O)[nH]c(=O)c3[N+](=O)[O-])cc2)c1	-4	-1	-0.2	-16	-2.5	1.4%
COc1ccc(CCNC(=O)COC(=O)CSc2ccc(C(N)=O)cc2[N+](=O)[O-])cc1OC	13	0	0.2	5	3.4	-1.6%
O=C(CN1CCN(c2ccccc2O)CC1)Nc1cccnc1Cl	10	7	0.4	-14	0.0	18%
S=C(Nc1ccc2c(c1)OCO2)NC1CCN(Cc2ccccc2)CC1	-13	-17	-0.4	33	-2.9	28%[38.3 µM]
Cc1ccc(N/C=C(\C#N)S(=O)(=O)c2ccccc2)cc1	-5	-6	3.1	26	0.6	2.4%
COc1cccc(NC(=O)C(NCC2CCCCC2)c2ccccc2)c1 (stereo unspecified)	12	-26	-0.4	7	-3.0	0.7%
O=C(c1ccccc1)c1ccc(OCC(O)CN2CCCC2)cc1 (stereo unspecified)	3	-4	-0.1	15	-2.7	-1.9%
Cc1ccc(-n2nnnc2SCC(=O)N2CCNC2=O)cc1C	3	-10	-0.9	-3	0.0	0.6%
COCC(=O)N1CCC(n2nnc3cc(F)ccc32)CC1	4	-5	-0.1	12	0.4	-2.2%
Cc1ccc(C(=O)O/N=C2\CCSc3ccc(C)cc32)cc1	9	0	0.2	-4	-3.3	26%[38.3 µM]
CCCn1c(=O)c(C(=O)NCCc2ccccc2)c(O)c2ccccc21	15	1	0.7	-3	-0.8	28%
COc1ccc(-c2cc(C(=O)Nc3ccc(Br)cc3)no2)cc1	0	-4	-0.9	-2	2.4	19%
O=C(c1cn(-c2ccccc2)nc1-c1cccs1)N(CCO)Cc1ccccc1	3	-18	-0.5	-2	-4.4	0.1%
O=C1C(Cl)=C(N2CCCCC2)C(=O)N1c1ccccc1Cl	25	-5	2.0	-19	0.7	-0.4%[38.3 µM]
CC(=O)SCCC(=O)N1C(C)CCCC1C(=O)O (stereo unspecified)	7	-14	0.4	-4	-2.2	0.1%
COc1ccccc1-c1cc(C(F)(F)F)nc(S(=O)(=O)CCCC(=O)Nc2cc(C)ccc2O)n1	.	.	-0.7	-11	.	0.9%

The list goes on:
SMILES	Six1-Eya2 blk	D2 PAM	TRPML1 ag	TRPML1 blocker	D2 agonist	PINK1 modulator
O=C(NCc1cccnc1)c1ccc(-c2ccc(Cl)cc2)o1	-18	-17	1.0	-10	2.5	1.6%
Cc1ccc(CNC(=O)CC2(CC3=NS(=O)(=O)c4ccccc4N3)CCCC2)cc1	1	4	-1.1	-21	1.8	1.7%
CCOC(=O)NC1=NCC(C)(C)S1	8	-11	0.4	5	1.4	-3.2%
CCCNC(=O)CSc1ccc(S(=O)(=O)N(C)C2CCCCC2)cn1	-3	-7	-1.1	-6	-3.1	-0.5%
CCOc1ccc(NS(=O)(=O)c2ccc(Cl)c(N=Nc3c(O)[nH]c(=S)[nH]c3=O)c2)cc1Br	?	-26	-1.2	6	-8.3	1.9%
CCCCN(C(=O)c1cccc(-n2cccc2)c1)c1c(N)n(CCCC)c(=O)[nH]c1=O	-10	2	-0.9	1	-5.1	10%
O=C1C=C(NCCc2ccccc2)C2(CCCCC2)O1	4	-11	1.4	2	-0.4	-1.4%
CN(CC(=O)Nc1cccc(F)c1)C(=O)c1ccc(-c2cccc(C(F)(F)F)c2)o1	-5	-39	0.5	-10	-3.9	3.6%
Cc1ccc(-n2ncc3c(SCc4ccccc4)ncnc32)cc1	21	-8	1.9	-11	0.2	0.4%
CCOC(=O)c1c(S(=O)(=O)NCC(=O)N2CCN(c3cccc(OC)c3)CC2)c(C)n(C)c1C	0	-1	-0.9	-14	-1.8	0.6%
COc1ccc2cc(S(=O)(=O)N3CCCCC3)ccc2c1S(=O)(=O)N1CCCCC1	4	6	-0.1	5	-0.9	2.4%
